Screens as filed in PubChem BioAssay.
Ba CapD inh = Bacillus anthracis CapD inhibitors, primary screen, biochemical, fluorescence intensity; z-score (no concentration beside the values); 140,000 tested, 0.23% active; purified CapD enzyme, fluorescence intensity read-out; hits give low values; some hits fall short of the stated cut; AID 492967, 2010;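 active means z-score under -4 in either of two replicates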;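 further: stock transfer was 100 nL into about 40 µL; score is relative to mean and spread of the plate; one replicate is shown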
AID504770 = growth inhibition of E. coli YBA685, primary screen, V. cholerae RctB inhibitors. E. coli YBA685 rctB-dependent plasmid, OD600 growth, 3 h; hits give low values. z-score (concentration not given with the values). 130,000 tested, 0.27% active. AID 504770, 2011;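 active means z-score under -2 on both plates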;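 further: wells of about 30 µL received 100 nL stock; score is relative to mean and SD of the test wells; the first replicate is given; strong numbers were not always called active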
* marks the source's active call; other numbers are inactive results; · = no result given.

SMILES	Ba CapD inh	AID504770
O=[N+]([O-])c1ccc(OCCO)c([N+](=O)[O-])c1	-0.43	·
CCCCc1nc2sc3c(NCc4ccccc4)ncnc3c2c2c1COC(C)(C)C2	-0.34	0.75
Cc1occc1C(=O)N/N=C/c1cn(-c2ccccc2)nc1-c1ccccc1	·	-0.15
CC(=O)O[C@]1(C(=O)CO)CCC2C3CCC4=CC(=O)CC[C@]4(C)C3[C@@H](O)C[C@@]21C (some centres undefined)	0.26	-0.4
CCN(CC)CC(O)COc1ccc(NC(C)=O)cc1 (centres undefined)	-0.13	-1.1
O=C(c1cn(-c2ccccc2)nc1-c1cccs1)N(CCO)c1ccccc1	0.98	0.75
Cc1ccccc1-c1nc(CSCC(=O)NC(C)c2ccc3c(c2)OCCO3)c(C)o1 (centres undefined)	0.09	0.45
Cc1cc(C)c(CCOC(=O)N2CCN(c3ccc(F)cc3)CC2)c(C)c1	-0.77	·
CC(=O)Nc1ccc(S(=O)(=O)n2cnc(C)c2)cc1	·	-0.75
Cc1ccc(NC(=O)C(c2ccccc2)N2CCCN(S(=O)(=O)c3c(C)noc3C)CC2)cc1 (centres undefined)	·	-0.85
Cc1cccc(-n2nnnc2-c2ccc3ccccc3n2)c1	-0.33	-1.2
COc1ccccc1N1CCN(C(=O)CN(c2ccc(Br)cc2)S(=O)(=O)c2ccc(C)cc2)CC1	-0.21	·
CCOC(=O)c1sc2ncn(CC(N)=O)c(=O)c2c1C	0.17	0.4
Cc1ccc(C)n1-c1ccc(C(=O)Nc2nccs2)cc1	·	-0.35
CC(C)(C)Nc1nc(Cl)nc(N(C#N)CN2C(=O)c3ccccc3S2(=O)=O)n1	-0.26	-1.1
CN(C)c1ccc(NC(=O)c2ccc(Cl)cc2)cc1	1.4	0.45
CSc1nnc(-c2cccn(Cc3ccc(Cl)cc3Cl)c2=O)n1C	84	·
O=C(Nc1ccccc1)Nc1cccc2nsnc12	·	-1.9
O=C(O)CCNc1cc(Cl)ccc1Oc1ccc(Cl)cc1	4.5	0.05
CCSC1=NSC2=NC(=O)/C(=C\c3cccnc3)C(=N)N12	-0.65	0.3
Cc1c(SCCO)c(=O)[nH]c2cc3c(cc12)OCO3	39	-0.15
CCN1CCN(C(=O)C(C)Sc2nnc(-c3ccncc3)n2-c2ccccc2C)CC1 (centres undefined)	·	-0.8
Cc1ccc(C2C3=C(CC(C)(C)CC3=O)OC3=C2C(=O)CC(C)(C)C3)o1	·	1.1
O=C1NC(=O)C(CC2CCCN3CCCCC23)C(=O)N1 (centres undefined)	-0.1	-0.2

Reformatted: results already given
The line under a structure holds: Ba CapD inh	AID504770
- O=C(O)CCNc1cc(Cl)ccc1Oc1ccc(Cl)cc1
    4.5	0.05
- CCSC1=NSC2=NC(=O)/C(=C\c3cccnc3)C(=N)N12
    -0.65	0.3
- Cc1c(SCCO)c(=O)[nH]c2cc3c(cc12)OCO3
    39	-0.15

(list continues)
SMILES	Ba CapD inh	AID504770
Cc1ccc2nc(Cn3cc(S(=O)(=O)N4CCCC4)ccc3=O)cn2c1	·	0.05
Cn1cccc1C1Nc2ccccc2NC2=C1C(=O)CC(C)(C)C2 (centres undefined)	-1.5	-0.8
O=C(OCc1ccccc1[N+](=O)[O-])N1CCC(O)(c2cccc(C(F)(F)F)c2)CC1	-0.68	·
Cc1csc(N)c1C#N	0.47	-0.9
Cc1[nH]n(-c2ccccc2)c(=O)c1/C=N/N1CCOCC1	-1	0.1
Cc1cc(C(=O)COC(=O)C2=COCCO2)c(C)n1-c1ccccc1	·	-0.5
Cc1cc2ncc(-c3ccnc(SCC(=O)c4ccc(Cl)cc4)n3)c(C)n2n1	0.43	2.1
CC(C)(CC(=O)O)Cc1nc2ccccc2c(=O)[nH]1	·	-0.05
COC(=O)c1cccc(OC)c1[N+](=O)[O-]	-0.95	·
Cc1ccc(-c2n[nH]c(=S)n2CC(=O)O)cc1	·	-0.1
Cc1ccc(S(=O)(=O)N(CC(=O)NCc2ccccc2)C(=O)N2CCN(C)CC2)cc1	·	-0.15
CC(C)(C)C(=O)OCN1N=CN(Cc2ccccc2)C=C1SC#N	·	0.55
S=C(NC12CC3CC(CC(C3)C1)C2)N1CCOCC1	·	-1
Cc1nc2sccn2c(=O)c1S(=O)(=O)NCC1CCN(Cc2ccc(Cl)cc2)CC1	19	0.4
CCOc1cc(-c2nnc(-c3ccco3)o2)cc(OCC)c1OCC	17	1.6
CCC(=O)N(/C=C1\Sc2ccccc2C1=O)Cc1ccccc1	-0.17	·
NC(=O)Nc1ccc2[nH]ncc2c1	13	-1.3
CCc1cc2c(=O)c(-c3nc4ccccc4[nH]3)coc2c(CN2CCC(C)CC2)c1O	-1.2	-0.4
CCN1CCN(Cc2cccc3cccnc23)CC1	0.6	-0.35
Clc1ccc(N=Cc2ccn(-c3ccc(Br)cc3)c2)cc1Cl	-0.39	·
CC(C)c1ccc(N=C=S)cc1	·	-0.35
C/C(O)=C1/C(=O)NC23CCCCC2C1c1ccccc1O3 (centres undefined)	0.02	·
CCN1C(=O)/C(=C\c2ccc(-c3ccc(C(=O)OC)cc3)o2)N(CC)C1=S	0.46	·
CC(O)CCc1sc2ccccc2[n+]1C (centres undefined)	-0.29	-1
CC(C)N(Cc1ccccc1)S(=O)(=O)c1ccc2ccccc2c1	0.36	0.1
CN1C(=O)CCC1(O)c1ccccc1 (centres undefined)	0.16	-0.4
CC(C)c1cc(NC(=O)C(C)(C)C)cc(C(C)C)c1O	0.23	-0.1
COCCCn1c(C)cc(C(=O)COC(=O)C23CC4CC(CC(O)(C4)C2)C3)c1C	·	0.05
CCCc1cc(N)on1	·	-1.9
CCOC(=O)c1ccc2c(c1)NC(CC(=O)Nc1ccccc1C)C(=O)N2CC (centres undefined)	·	0.55
CCOC(=O)c1cnc(SCC(=O)OCCCn2c(=O)[nH]c3ccccc32)nc1N	·	-0.2
O=S(=O)(c1cc(C(F)(F)F)ccn1)c1cccs1	0	0.05
CCOc1ccc(-c2cc(C(=O)N3CCN(C(=O)c4ccco4)CC3)[nH]n2)cc1	0.18	-0.9
Clc1ccc(Nc2nc(Cl)nc(NCCN3CCOCC3)n2)cc1	-0.065	·
CCCCCc1cc(O)c2c(c1)OC(C)(C)C1CC=C(C)CC21 (centres undefined)	0.4	·
COC(=O)c1ccc2c(=O)[nH]c(COC(=O)/C=C/c3ccc(S(=O)(=O)NCc4ccco4)cc3)nc2c1	·	-0.15
CCN(CC)c1ccc(C=C(C#N)C#N)cc1	·	-0.65
O=C(OCC1(c2ccc(Cl)cc2)CC1)N1CCN(c2ccc(F)cc2)CC1	0.26	·
CCOC(=O)c1csc(-n2cccc2)n1	-0.26	0.75
CCC(=O)O[C@H]1CCC2C3CCC4=CC(=O)CC[C@]4(C)C3CC[C@@]21C (some centres undefined)	0.15	0.45
O=C(C1CCCN1S(=O)(=O)c1cccc2nsnc12)N1CCCCCC1 (centres undefined)	6.2	-0.45
COc1cccc(-c2ccc(SCC(=O)N3CCOCC3)nn2)c1	·	-1.1
CC12CCC(C(=O)N3CCCCC3)(CC1=O)C2(C)C (centres undefined)	-0.34	-0.25
CCC(C)(C)c1ccc(S(=O)(=O)N2CCN(C(C)c3ccccc3)CC2)cc1 (centres undefined)	-0.55	·
CCn1c(SCCc2ccccc2)nnc1-c1nnc(SCCc2ccccc2)n1CC	-1	3.4
COc1cc(/C=N/NC(=O)c2ccccc2NC(=O)c2cccs2)cc(O)c1OC	1.8	·
Cc1c(C(=O)N2CCN(c3ccc(Cl)cc3)CC2)oc2c1-c1[nH]ncc1CC2	1.4	0.35
CCN(CC)C(=O)Cn1c(=O)n(-c2ccccc2)c(=O)c2sccc21	0.74	-0.65

Four entries out of the list, sorted by number of heavy atoms, smallest number first:
SMILES	Ba CapD inh	AID504770
CC12CCC(C(=O)N3CCCCC3)(CC1=O)C2(C)C (centres undefined)	-0.34	-0.25
Cc1c(C(=O)N2CCN(c3ccc(Cl)cc3)CC2)oc2c1-c1[nH]ncc1CC2	1.4	0.35
COc1cc(/C=N/NC(=O)c2ccccc2NC(=O)c2cccs2)cc(O)c1OC	1.8	·
CCn1c(SCCc2ccccc2)nnc1-c1nnc(SCCc2ccccc2)n1CC	-1	3.4

Next part
SMILES	Ba CapD inh	AID504770
Cc1ccc(NC(=O)OC2COC3C(OC(=O)Nc4ccc(C)cc4)COC23)cc1 (centres undefined)	·	0.45
Cc1nn(-c2ccccc2)c2[nH]c(=O)c(CNCc3cccnc3)cc12	·	0.2
Cc1c(Br)cc(C(=O)N2CCCC2)c(C)c1C	·	0.1
Cc1sc2nc(CSC(C)C(=O)Nc3ccc(N4CCN(C)CC4)cc3)[nH]c(=O)c2c1C (centres undefined)	·	2
CCC(=O)Oc1c(S(=O)(=O)c2ccccc2)c(C)nn1C(C)(C)C	-0.18	0.15
Cc1cc(N)n(-c2ncnc3sc4c(c23)CCC4)n1	0.29	-0.95
CCOc1cc(C2C(C#N)=C(N)Oc3n[nH]c(C)c32)ccc1OC(=O)N1CCOCC1 (centres undefined)	1.2	·
CS(=O)(=O)c1cccc(C(=O)Oc2ccccc2)c1	·	0.25
O=C(NCCC1=CCCCC1)c1c(O)nc2ccccn2c1=O	29	-0.35
Cc1nc(-c2ccccc2)cc(=O)[nH]1	·	0.4
CS(=O)(=O)N1CCc2cc(C(=O)N3CCCc4ccccc43)ccc21	·	-1.3
COCCCn1cnnc1SCC(=O)Nc1ccc(C)c(C)c1	·	-1.1
CC(C)Sc1nnc2oc3ccc(S(=O)(=O)N(C)C)cc3n12	·	-0.3
CC(=O)N1c2ccccc2Oc2cc3ccccc3cc21	25	0.15
Nc1ccc(CC(CCC(=O)O)C(=O)O)cc1 (centres undefined)	0.47	0.05
CCN(CC)CC(=O)OCC1C(C)C=C(C)CC1C (centres undefined)	0.42	-0.35
CC1Cc2ccccc2N1C(=O)CSc1nc(N)cc(N)n1 (centres undefined)	·	-0.25
N/C(Cc1cccs1)=N\OC(=O)c1ccccc1	0.35	-1.2
Cn1nc(NC(=O)C(F)(F)F)c(-c2ccccc2)c1C(F)(F)F	0.075	-0.55
CC(Sc1ccc(Cl)cc1)C(=O)NNC(=O)OCCN1CCN(Cc2cc3ccccc3o2)CC1 (centres undefined)	-0.04	·
COC(=O)C1CC(=O)OC12CCCCC2 (centres undefined)	-0.01	·
CCCn1c2ccccc2c2nc3cc(OC)c(OC)cc3nc21	13	·
O=C(Nc1cccc(Cl)c1)Nc1ccccc1N1CCCCC1	0.84	-0.25
CCOC(=O)c1sc(SC(C)C)c2c1CCCC2=O	-0.47	·
CSc1nc(-c2cccnc2)nc(-c2ccc(OC(F)(F)F)cc2)c1C#N	0.54	-0.35
C=CCNC(=O)c1c(N)n(-c2ccc(C)cc2)c2nc3ccccc3nc12	·	-0.2
c1ccc(-n2ncc3c(N4CCc5ccccc54)ncnc32)cc1	-0.11	2.3
CCOC(=O)Cn1cnc2scc(-c3ccccc3)c2c1=O	·	0.15
Cc1ccc(C(=O)COC(=O)c2ccc3nc(C)c(C)nc3c2)cc1	-0.3	0.5
Cc1ccc(OCC(=O)Nc2ccc3c(c2)OCO3)c(C(=O)c2cc(C#N)c(=O)n(C3CC3)c2)c1	·	0
COc1ccc(F)c(CN2CCCC(COC(=O)NCCc3c[nH]c4ccc(C)cc34)C2)c1 (centres undefined)	0.07	·
Cc1cc(NC(=O)c2cc3c(CO)cnc(C)c3oc2=N)ccc1Br	0.98	-0.2
O=C(NCCO)c1ccn[nH]1	-0.53	-1.2
CCOC(=O)N1CCN(C(=O)CSc2c(-c3ccccc3)[nH]c3ccccc23)CC1	0.01	1.9
O=C(COc1ccc(NS(=O)(=O)c2cccc3cccc(Cl)c23)cc1)N1CCOCC1	-0.58	-0.85
CC(CC(=O)NCc1cccs1)CC1=NS(=O)(=O)c2ccccc2N1 (centres undefined)	-0.36	-0.55
CCc1cccc(CC)c1NC(=O)/C=C/C(=O)O	-0.06	-0.3
N#CC1=C(N)Oc2ccc(Br)cc2C1C(C#N)C#N (centres undefined)	0.91	·
C=CCNc1nc(C(=O)OC2CCCCC2=O)cs1 (centres undefined)	·	0.5
Cc1ccc2nc(N3CC(=O)Nc4ccccc43)nc(-c3ccccc3)c2c1	-0.44	·

Reformatted with two lines to a compound: part of the list above
Each structure is followed by: Ba CapD inh, AID504770
> CCOC(=O)N1CCN(C(=O)CSc2c(-c3ccccc3)[nH]c3ccccc23)CC1
→ 0.01, 1.9
> O=C(COc1ccc(NS(=O)(=O)c2cccc3cccc(Cl)c23)cc1)N1CCOCC1
→ -0.58, -0.85

More results follow.
SMILES	Ba CapD inh	AID504770
COc1ccc(CNC(C)C(=O)NCc2ccc3c(c2)OCO3)cc1OC (centres undefined)	·	-0.7
O=C(c1ccc(F)cc1Cl)N1CCN(S(=O)(=O)c2ccc(F)c(F)c2)CC1	-0.35	·
CC1CCc2nc(NC(=S)NCc3ccco3)sc2C1 (centres undefined)	-0.36	0.15
O=C(Nc1cc(C(=O)N2CCOCC2)ccc1N1CC2CC(C1)c1cccc(=O)n1C2)c1ccc(Br)o1 (centres undefined)	-0.8	1.4
CCCCOc1ccc(OCCCC)c2c1NC1(N2)C(=O)Nc2ccc([N+](=O)[O-])cc21	-0.59	·
COCCOC(=O)C1=C(C)NC2=C(C(=O)CC(c3ccc(Cl)cc3)C2)C1c1cc(Cl)c(O)c(OC)c1 (centres undefined)	6.5	·
CC(=O)NC(Cc1ccc(F)cc1)C(=O)OCc1ccccc1 (centres undefined)	-0.13	-1

Rows were taken by chance; any-hit rate near 0.37%.
